HIV TAR-Tat: TAR RNA-Tat peptide displacers, HIV-1, primary screen, biochemical, FRET, FAM/TAMRA-labeled Tat; HIV-1 TAR RNA, Tat peptide displacement FRET; hits give high values; z-score (no concentration beside the values); hit rate 0.6% among 100,000; AID 1259389, 2018;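 further: score is relative to mean and SD of negative controls; some compounds called inactive have numbers as strong as hits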
CDC25B-CDK2 inh: primary biochemical HTRF screen for blockers of M-phase inducer phosphatase 2 binding to CDK2/cyclin A; P30305+P24941; HTRF CDC25B-CDK2/CyclinA binding, anti-His/anti-Flag; hits give high values; z-score (concentration not given with the values); hit rate 0.72% among 94,000; AID 1259370, 2018;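 further: score is relative to mean and SD of negative controls; strong numbers were not always called active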
The depositor's hits bear a star; · = no result given; & = joins results of further samples.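 How the source made its calls: active means z-score from 3 up in half or more of its runs; inactive means the rest.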

The opening 2 records, ahead of the listing:
SMILES | HIV TAR-Tat | CDC25B-CDK2 inh
CCOc1ccc(C2=CSC3=NCCN23)cc1 | · | -0.05
Cc1c(C(=O)NCc2cccs2)sc2nc3n(c(=O)c12)CCCCC3 | 1.4 | ·

This part in full, from the start:
SMILES | HIV TAR-Tat | CDC25B-CDK2 inh
CCOc1ccc(C2=CSC3=NCCN23)cc1 | · | -0.05
Cc1c(C(=O)NCc2cccs2)sc2nc3n(c(=O)c12)CCCCC3 | 1.4 | ·
Nc1nc2c(s1)c(=O)[nH]c(=O)n2CCc1ccccc1 | -1.4 | 0.07
COC(=O)CSCC(=O)Nc1ccc(OC(F)(F)F)cc1 | · | -0.73
COc1ccccc1NS(=O)(=O)c1cc(-c2noc(C)n2)cs1 | 1 | ·
COC(=O)c1sccc1S(=O)(=O)N1CCC(C(N)=O)CC1 | -0.86 | ·
COc1ccc(-c2noc(COc3ccc(Cl)c(C)c3)n2)cc1OC | -0.18 | -0.34
Cc1cc(N2CCN(S(=O)(=O)c3ccc(Cl)cc3)CC2)c2ccccc2n1 | · | -1.2
Cc1ccc(-c2c(C#N)c(N)nc3c2CCCCCC3)cc1 | · | -1.1
Cc1ccc(CNC(=O)Cn2ncc3c2-c2ccccc2OC3)o1 | 0.38 | 0.96
O=C(Nc1nnc(N2CCCC2)s1)Nc1ccccc1Cl | 1.5 | -1.3
Cc1ccc(-n2c(C)c(C)c3c2ncn2nc(-c4ccco4)nc32)c(C)c1 | 1.1 | -0.89
NC(=S)N/N=C/c1ccc(-c2ccc(Cl)c(Cl)c2)o1 | · | -3.1
CCCNC(=O)c1cc2sc(Cl)cc2n1CC | · | -0.63
Cc1oc2ncnc(N3CCOCC3)c2c1C(=O)NCCCN1CCOCC1 | 1.1 | ·
O=C(O)CCS(=O)Cc1cnn(-c2ccccc2)c1-n1cccc1 (stereo not drawn) | 1.2 | -0.64
CCc1cccc(NS(=O)(=O)c2cccc3cccnc23)c1 | · | 0.59
CC1CCC2(CC1)NCCN=C2NCc1ccc(Cl)cc1 (stereo not drawn) | -0.11 | ·
O=C(Nc1ccc2c(c1)OCO2)Oc1ccccc1 | 1.4 | -2
COC(=O)c1sccc1NC(=O)c1cc(S(=O)(=O)N(C)C)oc1C | · | -1.3
O=C(C(Cc1ccccc1)NS(=O)(=O)c1cccc2cccnc12)N1CCc2ccccc21 (stereo not drawn) | -0.63 | -0.31
O=C(CN1C(=O)CSc2ccc(S(=O)(=O)N3CCCC3)cc21)NCc1ccc2c(c1)OCO2 | 0.74 | ·
CCN(c1ccccc1)S(=O)(=O)c1ccc2[nH]cc(C(=O)N3CCc4ccccc43)c(=O)c2c1 | 1.6 | ·
CCOC(=O)c1c(C)n(C)c2c1cc(OC(C)=O)c1ccccc12 | 1.1 | -1.9
CCNC(=O)N(Cc1nc(-c2ccc(Cl)cc2)no1)C1CCCCC1 | 0.48 | -2.3
CCC(C)(C)NC(=O)CCS(=O)(=O)c1cccc2nsnc12 | 0.89 | ·
O=C(CSc1nc(-c2ccccc2)nc2cc(=O)[nH]n12)NCCc1ccccc1 | 1.7 | ·
COc1ccc(C(=O)Oc2ccc3c(=O)c(Oc4ccccc4Br)coc3c2)cc1OC | -0.96 | -0.86
CCOC(=O)c1cc(-c2ccc(S(=O)(=O)N3CCN(c4ccccn4)CC3)s2)on1 | -0.01 | ·
CN(C)C(CNC(=O)c1ccco1)c1ccco1 (stereo not drawn) | 1.5 | -1.3
CCOc1cccc2cc(-c3cn4c(n3)sc3cc(Cl)ccc34)c(=O)oc12 | · | -0.88
CN1CCN(CCNC(=O)C2CCN(c3ccc(Cl)cc3)C2=O)CC1 (stereo not drawn) | -0.5 | ·
CC(C)(C)c1ccc(-c2nc3n(c(=O)c2C#N)CCCS3)cc1 | -0.29 | 0.48
Cc1cn2c3ccccc3nc2n1CCO | -0.73 | -1.5
COc1cccc(-c2cn3nc(C4CCCCC4)sc3n2)c1 | 2.7 | -0.48
O=C(Nc1ccc(Br)cc1F)C1CCCN(S(=O)(=O)c2cccc3nsnc23)C1 (stereo not drawn) | 1.2 | -0.95
O=C(C1CCN(S(=O)(=O)c2cccs2)CC1)N1CCCC1 | · | -0.64
CC(=O)N1c2ccc(S(=O)(=O)NCCC(C)C)cc2CC1C (stereo not drawn) | 1.7 | ·
CC1(C)CC(CCNS(=O)(=O)c2ccccc2)(c2ccccc2)CCO1 (stereo not drawn) | · | 0.76
O=C(CCS(=O)(=O)c1ccc2c(c1)CCN2C(=O)C1CC1)NCc1ccco1 | -0.69 | ·
Cn1ccnc1SCC(=O)Nc1ccc(F)c(Cl)c1 | -2.2 | -0.4
COc1cc(OC)c(NC(=O)NCCc2csc3c2CCC(C)C3)cc1Cl (stereo not drawn) | 1.1 | ·
O=C(O)c1nc(N2CCCC2)c2oc3ccccc3c2n1 | 1.8 | 0.74
Cc1nc(N2CCN(c3ccc(F)cc3)CC2)nc2c1C(=O)CCC2 | 0.63 | -1.1
CCOC(=O)c1ccc(Nc2c(OCC)c(=O)c2=O)cc1 | · | 0.15
Cc1ccc(-c2nn3c(C)nnc3s2)cc1NC(=O)c1ccco1 | 1.4 | 1.1
c1ccc(CCN2CCc3nc(N4CCN(c5ccccn5)CC4)ncc3C2)cc1 | -0.17 | ·
Cc1ccc(C2Nn3c(C)nnc3SC2C(=O)Nc2ccc(Br)cc2F)cc1 (stereo not drawn) | -0.03 | -2.2
O=C(NCCN1CCOCC1)c1ccc(-n2ccc3ccccc32)s1 | 1.7 | ·
O=S(=O)(c1ccc(Cl)cc1)n1nc(-c2cccnc2)nc1NCc1ccccc1 | -0.18 | -2.8
O=[N+]([O-])c1ccc2c(c1)CCN2C(=S)NC1CC2CC1C1C=CCC21 (stereo not drawn) | · | -0.79
CCCN(CCC)CCNS(=O)(=O)c1cc(-c2cc(C)no2)ccc1C | 1.2 | ·
O=C(CSc1ccc2nc(-c3ccccc3)cn2n1)N1CCc2ccccc21 | 0.53 | ·
CSc1nnc2c(n1)OC(c1ccc(C)s1)N(C(C)=O)c1ccccc1-2 (stereo not drawn) | 0.06 | 0.09
CCCCN1C(=O)c2cc(C(=O)NC)nn2CC1(C)C(=O)NC1CCCC1 (stereo not drawn) | 0.84 | ·
Cc1oc2c(O)c(O)ccc2c(=O)c1-c1ccccc1 | · | -5
Cc1cc(CN2CCN(Cc3ccccc3)CC2)cs1 | -0.43 | ·
Cc1ccc(-c2nc3ncccn3c2NCc2ccccc2)cc1C | 0.54 | ·
O=C(C1CCCN(c2nn3c(=O)c4c(nc3s2)CCCC4)C1)N1CCC(N2CCCCC2)CC1 (stereo not drawn) | 1.5 | ·
CCn1c2ccccc2c2cc(CN3CCN(c4ccccc4)CC3)ccc21 | · | -0.22

Further results
SMILES | HIV TAR-Tat | CDC25B-CDK2 inh
N#C/C(=C\c1ccc2c(c1)OCO2)C(N)=O | · | -0.01
CCOC(=O)CSc1nc2c(sc(=S)n2CC2CCCO2)c(=O)n1-c1ccc(F)cc1 (stereo not drawn) | 1.2 | -1.5
COCCCN[C@H]1CS(=O)(=O)C[C@@H]1S(=O)(=O)c1ccccc1 | -1 | -0.5
c1ccc(-n2nnnc2SCCNCc2ccsc2)cc1 | 0.91 | -0.72
Cc1ccc(NC(=O)Nc2cccnc2)cc1Cl | · | 0.99
CCc1ccc(CNCCSc2nnnn2-c2ccccc2)cc1 | -0.03 | -0.63
Clc1ccc(OCc2nc3c4cnn(-c5ccccc5Cl)c4ncn3n2)cc1 | 0.62 | -2.3
CCc1nnc2c3ccccc3nc(Nc3ccccc3)n12 | 0.21 | -0.13
Cc1ccc(S(=O)(=O)[C@H]2CS(=O)(=O)C[C@@H]2NCCc2cccs2)cc1 | 1.9 | -1.4
COCc1nc(-c2ccc(-c3ccccc3)nc2OC)no1 | 0.7 | -0.04
Fc1cccc(Cl)c1CSc1nc2ccccc2[nH]1 | 1.7 | -0.35
COc1ccc(OC)c(C2=NOC(C(=O)N3CCCCC3)C2)c1 (stereo not drawn) | 0.04 | -0.7
O=C(CSc1nnc(-c2ccc(Br)cc2)o1)NC1CCCCC1 | 0.47 | -0.45
CC(=O)Nc1nnc(SCc2cc(=O)n3nc(C4CCCCC4)sc3n2)s1 | 0 | ·
Cc1ccc(C(=O)COC(=O)c2cccc(N3C(=O)C4CC=CC(C)C4C3=O)c2)cc1[N+](=O)[O-] (stereo not drawn) | · | -2.3
COc1ccc(CSc2nc(N)c3c4c(sc3n2)COC(C)(C)C4)cc1 | · | -11
COC(=O)c1ccc(C2Nc3ccccc3NC3=C2C(=O)CC(c2cccc(OC)c2)C3)cc1 (stereo not drawn) | · | -1.9
Cc1cc(-c2nnc(SCC(=O)c3ccc(C(C)(C)C)cc3)o2)no1 | -2.9 | -1.6
Fc1cccc(COc2cccc3ccc(N4CCCC4)nc23)c1 | 0.39 | ·
Nc1ncc(Br)cc1S(=O)(=O)Nc1cccc(Cl)c1 | 0.89 | ·
CC(NC(=S)N/N=C/c1cc(Cl)cc(Cl)c1O)c1ccccc1 (stereo not drawn) | · | -2.1
c1ccc(C2=Nn3c(nnc3-c3ccncc3)SC2)cc1 | · | -2.1
Cc1ccc2oc(=O)c3cnn(CC(=O)N(CCCOC(C)C)Cc4ccco4)c3c2c1 | 0.67 | -1.1
CC1Sc2ccc(S(=O)(=O)N(Cc3ccccc3)C(C)C)cc2NC1=O (stereo not drawn) | 1.4 | ·

Some of these compounds in order of SMILES length, smallest number first.
SMILES | HIV TAR-Tat | CDC25B-CDK2 inh
c1ccc(C2=Nn3c(nnc3-c3ccncc3)SC2)cc1 | · | -2.1
Fc1cccc(COc2cccc3ccc(N4CCCC4)nc23)c1 | 0.39 | ·
CC(NC(=S)N/N=C/c1cc(Cl)cc(Cl)c1O)c1ccccc1 (stereo not drawn) | · | -2.1
Cc1ccc2oc(=O)c3cnn(CC(=O)N(CCCOC(C)C)Cc4ccco4)c3c2c1 | 0.67 | -1.1
COC(=O)c1ccc(C2Nc3ccccc3NC3=C2C(=O)CC(c2cccc(OC)c2)C3)cc1 (stereo not drawn) | · | -1.9

Back to the main list, repeating the 4 entries before the break.
SMILES | HIV TAR-Tat | CDC25B-CDK2 inh
CC(NC(=S)N/N=C/c1cc(Cl)cc(Cl)c1O)c1ccccc1 (stereo not drawn) | · | -2.1
c1ccc(C2=Nn3c(nnc3-c3ccncc3)SC2)cc1 | · | -2.1
Cc1ccc2oc(=O)c3cnn(CC(=O)N(CCCOC(C)C)Cc4ccco4)c3c2c1 | 0.67 | -1.1
CC1Sc2ccc(S(=O)(=O)N(Cc3ccccc3)C(C)C)cc2NC1=O (stereo not drawn) | 1.4 | ·
COc1cc2c(cc1OC)C(/C=C1\SC(C(C)=O)=NN1c1ccc(C)cc1)=NCC2 | · | -1.7
CN(C)S(=O)(=O)N(CC(=O)NC1CC2CCC1C2)c1ccccc1 (stereo not drawn) | -1.1 | -2.2
CC(C)OC(=O)CSC1=C(C#N)C(c2ccc(C(C)C)cc2)CC(=O)N1 (stereo not drawn) | 1.1 | -1.4
C=CCOc1ccc(C2CC(=O)Nc3n[nH]c(-c4ccccc4)c32)cc1OC (stereo not drawn) | -1.9 | -1.4
COc1ccc(/C=N/N=C2/NC(=O)C(Cc3cc(Cl)ccc3Cl)S2)cc1 (stereo not drawn) | · | -2.7
CCCCOC(=O)C1=C(C)NC2=C(C(=O)CC(C)(C)C2)C1c1ccc(C(=O)OC)cc1 (stereo not drawn) | 0.71 | -0.52
Cc1ccc(NS(=O)(=O)c2ccc3[nH]c4c(c3c2)CCCCC4)nc1 | 1.8 | ·
Cc1ccc(-c2noc(-c3nnn(-c4ccccc4C)c3N)n2)cc1 | -0.72 | ·
COC(=O)c1sccc1NC(=O)N1CCN(S(=O)(=O)c2ccc3c(ccn3C)c2)CC1 | -0.1 | ·
Cc1cc(=O)n(CC(C)O)c(O)c1C#N (stereo not drawn) | -2.5 | 0.98&-1.1
CC1=C(C(=O)Nc2ccc3c(c2)OCCO3)C2(CCCCC2)OC1=O | -0.71 | 0.55
Cc1nnc2c(N3CCC(Cc4ccccc4)CC3)nc3ccccc3n12 | -0.21 | 0.54
CC(C)n1c(N2CCCNCC2)cc(=O)n(C(C)C)c1=O | 0.71 | -0.68
O=C(NCCc1cccs1)c1cnn(-c2ccccc2)c1-n1cccc1 | 1.6 | ·
CN(C)c1ncc(C(=O)Nc2nccs2)cn1 | 1.4 | ·
CCCCc1cc(=O)oc2cc3occ(-c4ccc(OC)cc4)c3cc12 | · | -0.81
CCCCN(Cc1ccco1)C(=O)c1noc2c1COc1ccccc1-2 | 2.1 | -0.11
C=CCn1c2ccccc2c2nnc(SCC(=O)Nc3ncc([N+](=O)[O-])s3)nc21 | 0.86 | -6.2
O=C1C(=O)N(CCCN2CCOCC2)C(c2cccs2)/C1=C(\O)c1ccccc1 (stereo not drawn) | -0.68 | -1.6
CC1Cc2cc(S(=O)(=O)CCC(=O)Nc3cccc(F)c3)ccc2N1C(=O)C1CC1 (stereo not drawn) | -0.94 | ·
COc1ccc(NC(=O)CCS(=O)(=O)c2ccc3c(c2)CCN3C(=O)C2CC2)c(OC)c1 | -0.76 | ·
O=C(O)c1ccccc1C(=O)N(Cc1ccccn1)Cc1ccccn1 | · | -1.1
COc1cc(Cl)c(NS(=O)(=O)c2cc(-c3cc(C)no3)ccc2C)c(OC)c1 | -0.8 | ·
O=C(CSc1ncc(S(=O)(=O)c2ccc(Br)cc2)c(=O)[nH]1)Nc1cccc(F)c1 | 2.6 | -1.9
OC(CNC1CCN(Cc2ccccc2)CC1)C(F)(F)F (stereo not drawn) | · | -2.1
Cc1cc2nc(C)n(Cc3ccccc3C)c2cc1C | 1.2 | 0.89
CC(C)OC(=O)c1cc2nc(-c3ccccc3)cc(C(F)(F)F)n2n1 | 1.3 | -3.4
CC1CSc2ccc(S(=O)(=O)Nc3cccnc3)cc2NC1=O (stereo not drawn) | 1.8 | ·
NS(=O)(=O)c1ccc(N2C(=O)CCCC2=O)cc1 | · | -0.59

Screens as filed in PubChem BioAssay.
